Screens (PubChem BioAssay)
VDR inh: vitamin D3 receptor (human) inhibition; Potency, µM, for inactives: max response, negative = inhibition, usual class: inhibitors; actives 0.93% (n = 400,000); VDR-SRC2-3 peptide fluorescence polarization, 2 h; active = well fitted inhibition curve with a large enough effect; inconclusive = small, poorly fitted or top-dose-only effect, or another doubt; inactive = no such curve, though single readings can be large or run the other way; also: series mostly up to about 120 µM
Target sequence (P11473 whole entry, looked up): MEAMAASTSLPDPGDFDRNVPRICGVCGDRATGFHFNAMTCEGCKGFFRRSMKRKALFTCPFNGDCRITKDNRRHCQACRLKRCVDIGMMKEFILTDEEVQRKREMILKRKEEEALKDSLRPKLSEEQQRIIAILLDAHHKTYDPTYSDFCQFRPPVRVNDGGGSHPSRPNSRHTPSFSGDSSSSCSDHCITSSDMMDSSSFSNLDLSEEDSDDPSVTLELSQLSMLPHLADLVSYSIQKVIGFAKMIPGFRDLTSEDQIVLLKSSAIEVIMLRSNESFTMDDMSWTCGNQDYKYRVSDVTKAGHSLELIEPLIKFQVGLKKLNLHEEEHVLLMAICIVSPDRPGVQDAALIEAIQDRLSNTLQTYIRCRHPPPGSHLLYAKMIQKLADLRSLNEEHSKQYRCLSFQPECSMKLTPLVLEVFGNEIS
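Inhibition of the VDR/SRC2-3 peptide interaction is quantified by fluorescence polarization. Compounds (23 nl, pintool) incubate with the reagents for 2 hours at ambient room temperature.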
An asterisk follows results filed as active; ? = inconclusive; & = joins results of further samples. % is scaled to controls: 0 for no effect and ±100 for the full control effect; potency is read from the fitted curve at half-maximal effect. A portion of the library; the hit share may differ from the screen's.

SMILES,VDR inh
COc1ccc(C(=O)NC(=S)N2CCCCC2)cc1,19.5%
COc1ccc([N+](=O)[O-])cc1NC(=O)CCN1CCOCC1,-23.7%
CN(C(=O)c1cccc(NC(=O)Cc2ccc(NC(=O)C3CCN(C(=O)C4CCC4)CC3)cc2)c1)C1CCCCC1,-6.5%
O=C(Cc1ccc([N+](=O)[O-])cc1)N1CCN(c2ccc([N+](=O)[O-])cc2)CC1,-2.9%
Cc1ccc2[nH]c3c(=O)n(Cc4ccncc4)cnc3c2c1,18.9%
CCOC(=O)C1(CCc2ccccc2)CCN(C(=O)CCc2cnn(C)c2)CC1,-6.7%
COc1ccccc1CCC(=O)OCC(=O)Nc1ccc2[nH]c(=O)[nH]c2c1,10.8%
CN(CC(=O)Nc1ccc(Cl)c(Cl)c1)C(=O)c1cccc2cccnc12,-5.8%
Cc1ccc(S(=O)(=O)N2CCC(C(=O)NCCC3=CCCCC3)CC2)c(C)c1,-15.9%
O=C(c1nc[nH]c1C(=O)N1CCc2ccccc2C1)N1CCc2ccccc2C1,-2.2%
CCOC(=O)NC1(NCC(C)C)Oc2ccccc2O1,-8.3%
O=C(c1ccccc1)N1CCN(C(=O)c2cc3ccccc3o2)CC1,21.2%
CCOC(=O)c1ccccc1OC(=O)Oc1ccccc1C(=O)OCC,-3.7%
Cc1cccc(N/N=C/c2ccc(O)c(O)c2O)c1,?
O=C(OCc1cc2ccccc2[nH]c1=O)c1cccc([N+](=O)[O-])c1,-11.1%
COC(=O)c1sc(=S)n(Cc2ccccc2)c1C,-15.9%
CCCn1c(NC(=O)C2CCN(S(=O)(=O)c3cccs3)CC2)nc2ccccc21,5.5%
O=C1C=CN(C(=O)Oc2ccccc2)CC1,-2.2%
CCNc1nc(NC(C)C)nc(OCCNS(=O)(=O)c2cc(C)ccc2C)n1,19.7%
CCc1ccc(CNC(=O)C2CCN(S(=O)(=O)N3CCCC3)CC2)cc1,-2.1%
CC(NC(=O)OCc1ccccc1)C(=O)Oc1cc2oc(=O)cc(-c3ccccc3)c2cc1Cl (centres undefined),12.5%
CCN(Cc1ccccc1)C(=O)CSc1nncn1C,-2.5%
CN(CC(=O)Nc1ccccc1F)CC(=O)Nc1ccccc1Br,-5.7%
Cc1ccc(S(=O)(=O)N2CCCC2C(=O)NCc2ccccc2F)cc1 (centres undefined),0.6%
CSCCC1NC(=O)N(CC(=O)Nc2ccc(Cl)c(S(=O)(=O)N3CCOCC3)c2)C1=O (centres undefined),27.4%
Cc1nc(NC(=O)c2ccc([N+](=O)[O-])cc2Cl)sc1C(=O)N(C)C,?
O=C(NC1CCCCC1)C(c1ccccc1)N(C(=O)Cc1ccsc1)c1ccccc1 (centres undefined),-9.3%
NS(=O)(=O)c1ccc(CCNC(=O)CN2CCN(c3ccccc3O)CC2)cc1,3.6%
CCN(CC)S(=O)(=O)c1ccc2[nH]cc(C(=O)NCCCN3CCCCC3C)c(=O)c2c1 (centres undefined),3.1%
Cc1csc(=O)n1CC(=O)OCC(=O)Nc1ccc(Cl)cc1F,-14.8%
COc1ccc(NC(=O)NCc2cccnc2)cc1OC,-2.7%
Cc1ccc2oc(-c3cccc(NC(=O)c4cccc5c(Cl)cccc45)c3)nc2c1,-9.5%

Laid out differently: entries from further up
CSCCC1NC(=O)N(CC(=O)Nc2ccc(Cl)c(S(=O)(=O)N3CCOCC3)c2)C1=O (centres undefined)
  VDR inh: 27.4%

O=C(NC1CCCCC1)C(c1ccccc1)N(C(=O)Cc1ccsc1)c1ccccc1 (centres undefined)
  VDR inh: -9.3%

(cont.)
SMILES,VDR inh
Cn1nnnc1Sc1ncnc2scc(-c3ccccc3)c12,?
COc1ccc(C(=O)c2ccc(OC)c(OC)c2OC)cc1,1.0%
O=S(=O)(Cc1ccc(Cl)cc1)N1CCN(Cc2ccc3c(c2)OCO3)CC1,7.1%
C[C@@H]1CN([C@@H](C)CO)C(=O)c2cc(NC(=O)Nc3ccc4c(c3)OCO4)ccc2O[C@H]1CN(C)S(=O)(=O)c1cn(C)cn1,-11.4%
COc1ccccc1NC(=O)CSc1nnc(Cn2c(=O)sc3ccccc32)n1C,2.3%
Cc1ccc(NC(=O)c2cc([N+](=O)[O-])ccc2NCc2cccnc2)cc1Cl,-6.5%
COc1ccc(Cn2nnnc2C(c2ccccn2)N2CCN(c3ccc(O)cc3)CC2)cc1 (centres undefined),-3.7%
CCc1ccc(OCC(=O)Nc2ccc3oc(-c4ccc(OC)cc4)nc3c2)cc1,-21.7%
Cc1cccc(NC2=C/C(=N/S(=O)(=O)c3cccs3)c3ccccc3C2=O)c1,-17.6%
Cc1nc2c(C)cccn2c(=O)c1NC(=O)c1cccc2ccccc12,-20.8%
CCc1nc2ccc(C(=O)N3CCN(c4cc(Cl)ccc4C)CC3)cc2nc1CC,3.0%
COc1ccc(C(=O)Nc2ncccc2C)cc1S(=O)(=O)N1CCCc2ccccc21,11.7%
O=C(Cn1ccc2ccccc2c1=O)NCCC(=O)N1CCN(c2cccc(C(F)(F)F)c2)CC1,-5.7%
Cc1ccccc1Oc1ccc2c(c1)[C@@H]1C[C@H](N(C)C(=O)NC3CCCCC3)[C@H]([C@H](C)O)C(=O)N1CC2,0.7%
CC(C)OC(=O)c1cccnc1N1CCN(c2cccc(Cl)c2)CC1,-17.1%
Oc1cccc(Nc2ncnc3ccccc23)c1,-12.2%
COc1cccc(CNC(=O)CCn2cnc3ccccc3c2=O)c1,1.7%
COc1ccccc1-n1c2nc3ccccc3nc2c2c(=O)n(-c3cc(C)cc(C)c3)cnc21,1.4%
O=C(Nc1ccccc1C(=O)N1CCCCCC1)c1ccc(Cl)cc1,-18.1%
CCOC(=O)c1nnn(C(CC)C(=O)Nc2c(C)cccc2C)c1C(=O)OCC (centres undefined),0.0%
Cc1ccc(S(=O)(=O)CC(CN2CCOCC2)N2CCOCC2)cc1 (centres undefined),-6.3%
O=C(COC(=O)C1CCN(S(=O)(=O)c2c(Cl)cccc2Cl)CC1)NCc1ccco1,2.3%
CCc1ccc(OCC(O)CN2CCN(c3ccc(OC)cc3)CC2)cc1 (centres undefined),13.8%
Cc1ccc2nc3c(cc(C(=O)NC4CCCCC4)c(=N)n3C3CCCCC3)c(=O)n2c1,-2.3%

Fetched one by one from the entries so far (2):
SMILES,VDR inh
Cc1ccc(S(=O)(=O)CC(CN2CCOCC2)N2CCOCC2)cc1 (centres undefined),-6.3%
CCOC(=O)c1nnn(C(CC)C(=O)Nc2c(C)cccc2C)c1C(=O)OCC (centres undefined),0.0%

Further entries.
SMILES,VDR inh
Cc1cc(=O)oc(C)c1C(=O)NCCc1ccc(F)cc1,-10.0%
O=c1cc(N2CCN(c3ccc(F)cc3)CC2)[nH]c(=O)n1-c1cccc(Br)c1,4.1%
Cc1ccc([N+](=O)[O-])cc1NC(=O)Nc1ccc(S(N)(=O)=O)cc1,4.8%
CCCCC(=O)OCc1c(-c2ccccc2)ncc2ccccc12,-27.0%
CC1(C)CC(=O)C2=C(C1)OC(N)=C(C#N)C21C(=O)N(Cc2ccccc2Cl)c2ccccc21 (centres undefined),-2.7%
CCN(CC)CCOC(=O)c1cccnc1,-0.6%
COc1cccc(C(=O)NC2(C(F)(F)F)N=C3SCCN3C2=O)c1 (centres undefined),-10.8%
CCOC(=O)C1=CN(C(C)C)CCC1=O,-29.3%
CCOC(=O)c1sc2nc(C)nc(NCc3cccnc3)c2c1C,2.9%
COc1ccc(CN2CCCC(C(=O)N3CCc4ccccc4C3)C2)cc1OC (centres undefined),-19.6%
CC1=NN(c2ccc([N+](=O)[O-])cc2)C(=O)/C1=C\N(C)C,?
CCCCn1c(SCC(=O)OCC)nc2c1c(=O)[nH]c(=O)n2C,-3.2%
CCOc1ccccc1NC(=O)NCCn1c(=O)oc2ccc(C)cc21,-1.1%
CCCNC(=O)C(Cc1ccccc1)NC(=O)c1ccc(-c2ccccc2)cc1 (centres undefined),-21.2%
CCC(=O)N/C(=N/c1nc(C)cc(C)n1)Nc1ccc(OC)cc1,7.7%
COCCCNC(=S)N(CCN(C)C)Cc1cc2cc3c(cc2[nH]c1=O)OCCO3,-8.3%
CCC(NC(=S)Nc1ccccc1)C(=O)O (centres undefined),-18.2%
CCc1nnc(NS(=O)(=O)c2ccc(NC(=S)NC(=O)/C=C/c3ccc(C(C)C)cc3)cc2)s1,-8.9%
O=C(CSc1nnc2c(Cl)cc(C(F)(F)F)cn12)Nc1ccc2c(c1)OCO2,0.8%
CCOc1ccc(NC(=O)CC(NC(C)=O)c2ccccc2)cc1S(=O)(=O)N1CCCC1 (centres undefined),-10.1%
CC(=O)c1cccc(NC(=O)COc2ccc(S(=O)(=O)N3CCOCC3)cc2)c1,-12.5%
C/C(CC(=O)Nc1ccc(Cl)cc1Cl)=N\NC(=O)c1ccncc1,-6.1%
CCn1c(SCC#N)nc2ccccc2c1=O,-8.4%&-1.0%
CCOC(=O)CSc1nc2sc3c(c2c(=O)n1-c1ccc(OCC)cc1)CCN(C)C3,8.8%
CC1Sc2ccc(S(=O)(=O)CCC(=O)NC3CCCCCC3)cc2NC1=O (centres undefined),13.6%
Cn1cccc1C(=O)OCC(=O)N1CCN(c2ccccc2)CC1,7.7%
O=C(N/N=C/c1ccc(Br)cc1)c1ccccc1-n1cccc1,1.1%
Cc1cc(C(=O)CSc2nnc(-c3ccccc3)n2-c2ccccc2)c(C)n1-c1ncn[nH]1,-6.5%
COc1cc(NC(=O)c2cc3nc(-c4ccc(C)cc4)cc(C(F)(F)F)n3n2)cc(OC)c1OC,-18.4%
Cc1ccccc1C(=O)OCC(=O)N(C)c1c(N)n(Cc2ccccc2)c(=O)[nH]c1=O,-3.6%
COc1cccc(N2CCN(C(=O)c3ccccc3SCC(=O)NCc3ccco3)CC2)c1,-26.1%
COc1cccc(-c2ccc(C#N)c(OC(=O)c3c(Cl)cccc3Cl)n2)c1,-13.2%
O=C(NCCOc1ccccc1)[C@@H]1CCCN1C(=O)c1cccs1,-5.0%
CSC1=NC2(CC(c3ccccc3)Oc3cc(O)ccc32)CC(C)(C)N1 (centres undefined),2.1%
CC1(C)CC(=O)C=C(c2ccc(-c3ccccc3)cc2)C1,-11.2%
O=C(Cc1cccc2ccccc12)NNC(=O)Nc1cccc(Cl)c1,-1.1%
O=C(Nc1ccc(NC(=O)c2cccnc2)cc1)c1ccccc1,-10.5%
CC(C)C[C@H](NC(=O)C1CCN(S(=O)(=O)c2ccccc2)CC1)C(=O)NCc1cccnc1,-4.3%
CCOc1ccc(-n2nc3ccc(NC(=O)c4cccc(F)c4)cc3n2)cc1,23.9%
COc1ccc(NC(=O)c2c3c(nc4ccccc24)CCC3)cc1,-0.8%
Cc1ccccc1N(C(=O)Cn1nnc(-c2ccc(F)cc2)n1)C(C(=O)NC(C)(C)C)c1ccncc1 (centres undefined),-5.2%
CCNc1ncc2nc(CCc3ccccc3)c(=O)n(C)c2n1,-21.8%
Cc1ccccc1-n1c(-c2ccco2)n[nH]c1=S,-6.6%
CSc1ccccc1OCc1cc(C(=O)NCc2cccc(C)n2)no1,-13.7%
O=C(CN(Cc1ccccc1)C(=O)CCC(=O)Nc1ccccn1)NCc1ccco1,9.4%
COc1ccccc1CNC(=O)c1ccc(CS(=O)(=O)c2ccccc2)o1,-3.7%
Cc1nc(Nc2ccc(Cl)cc2)cc(-c2ccccc2)n1,10.2%
Cc1cc(S(=O)(=O)Nc2ccc3c(c2)COC3=O)ccc1F,-7.0%
O=C(Cn1ncc(N2CCOCC2)c(Br)c1=O)c1ccc(Cl)cc1,8.9%
Cc1ccc(CN2C(=O)CCC2C(=O)NCc2ccco2)cc1 (centres undefined),10.3%
Cn1ccnc1SCCNC(=O)C1CCC(=O)N(Cc2ccc(Cl)cc2)C1 (centres undefined),-9.2%
O=C(O)c1ccc2c(c1)C(=O)N(c1cc([N+](=O)[O-])ccn1)C2=O,-1.4%
O=C1Nc2cc(Cl)c(Cl)cc2N(O)N1c1cccc(Cl)c1,-6.2%
O=C(COC(=O)c1cc2ccccc2o1)c1ccccc1,0.3%
CC1CCC2(CC1)NC(=O)N(CC(=O)NC(=O)Nc1ccc3c(c1)OCCO3)C2=O (centres undefined),1.5%
Cc1ccc2nc(NC(=O)COC(=O)c3ccncc3)sc2c1,8.8%

Next structures follow.
SMILES,VDR inh
COC(=O)c1ccccc1NC(=O)CN(c1ccccc1OC)S(C)(=O)=O,-6.6%
CCOc1ccc(C(C(=O)NC2CCCC2)N(CCCO)C(=O)c2ccc(-c3ccccc3)[nH]2)cc1 (centres undefined),-22.4%
CC1=C(C(=O)OCCCCCl)C(c2cc3c(cc2Br)OCO3)NC(=O)N1 (centres undefined),0.6%
COc1ccc(OC)c(S(=O)(=O)Nc2cc3c(cc2N2CCCC2)n(C)c(=O)c(=O)n3C)c1,?
COc1ccc(-c2c(C)oc3c(CN4CCOCC4)c(O)ccc3c2=O)cc1OC,4.6%
Cc1cccc(N2CCN(C(=O)C3CCCN(S(=O)(=O)c4c(C)noc4C)C3)CC2)c1C (centres undefined),-6.0%
CCOC(=O)c1c(NC(=O)CSc2nnc(Cc3csc(N)n3)n2C)sc(C)c1C,18.7%
O=c1[nH]c(-c2ccccc2)nc(CN2CCCCC2)c1O,-1.2%
COC(=O)c1ccc(C2c3c(-c4ccccc4O)n[nH]c3C(=O)N2Cc2cccnc2)cc1 (centres undefined),4.3%
COC(=O)[C@@H](NC(=O)N1CCC(Cc2ccccc2)CC1)C(C)C,11.6%
O=C(CSCc1c(F)cccc1F)Nc1ccccc1,-2.6%
CCCn1c(C)cc(=O)c2cc(NC(=O)c3cnccn3)ccc21,-13.0%
CCC(C(=O)OCC(=O)NC(=O)c1ccccc1OC)c1ccccc1 (centres undefined),18.1%
